Env fusion inh: HIV envelope-mediated fusion inhibition; HeLa-JRFL Env/CEM21 cell fusion, luciferase; inhibition, % at 12.3 µM; hit rate 1.1% among 360,000; AID 651610;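 active = mean replicate inhibition score of at least 50 and every replicate individually at or above 50; inconclusive = only one of the two criteria met; inactive = mean below 50 and not all replicates reaching 50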;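 note: 0% = plate neutral controls and 100% = maraviroc near 300 nM; one replicate is shown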
eIF4H FP inh: inhibitors of RNA binding by human eIF4H. eIF4H fluorescence polarization binding assay. inhibition, % at 35 µM. hit rate 0.94% among 290,000;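 active = 50% or more with normal probe brightness, or confirmed in later tests; inconclusive = above 50% with abnormal brightness, or retests that disagree; inactive = below 50% or failed in later tests; about a fifth of its hits are not listed in these tables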;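 note: calls also rest on retests at 20 µM and on dose response follow-up; 0% = protein and probe with vehicle and 100% = probe without protein; strong numbers were not always called active; many hits fall short of the cut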
PABP polyA inh: PABP-poly(A) binding inhibition. PABP-poly(A) RNA binding, fluorescence polarization. inhibition, % at 35 µM. hit rate 1% among 290,000;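 active = 50% or more with normal probe brightness, or confirmed in later tests; inconclusive = above 50% with abnormal brightness, or retests that disagree; inactive = below 50% or failed in later tests; about a fifth of its hits are not listed in these tables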;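 note: calls also rest on retests at 20 µM and on dose response follow-up; controls were probe without protein and protein plus probe with vehicle; some compounds called inactive have numbers as strong as hits; many hits fall short of the cut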
Target sequence (P11940 whole entry, looked up): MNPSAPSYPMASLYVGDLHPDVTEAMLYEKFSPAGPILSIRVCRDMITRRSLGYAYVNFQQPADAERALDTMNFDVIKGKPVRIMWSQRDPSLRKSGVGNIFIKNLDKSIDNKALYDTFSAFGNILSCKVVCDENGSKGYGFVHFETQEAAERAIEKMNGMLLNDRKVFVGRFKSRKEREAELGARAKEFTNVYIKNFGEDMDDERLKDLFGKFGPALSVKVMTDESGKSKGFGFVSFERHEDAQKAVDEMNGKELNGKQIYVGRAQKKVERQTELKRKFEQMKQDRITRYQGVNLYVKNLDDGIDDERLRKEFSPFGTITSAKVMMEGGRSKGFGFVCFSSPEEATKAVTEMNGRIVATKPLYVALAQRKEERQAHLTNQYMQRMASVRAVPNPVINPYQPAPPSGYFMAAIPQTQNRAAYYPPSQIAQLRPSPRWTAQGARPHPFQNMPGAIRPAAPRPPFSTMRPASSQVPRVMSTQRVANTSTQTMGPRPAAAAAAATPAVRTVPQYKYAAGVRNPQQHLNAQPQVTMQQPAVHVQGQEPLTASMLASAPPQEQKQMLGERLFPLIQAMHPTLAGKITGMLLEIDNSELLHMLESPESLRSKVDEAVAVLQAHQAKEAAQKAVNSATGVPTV
Rce1 inhib: inhibitors of yeast Ras-converting enzyme | yeast membranes, quenched prenylated peptide cleavage fluorescence | calls only | hit rate 0.27% among 290,000 | AID 2563;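 active = fall in fluorescence gain of 50% or more versus controls, with final raw signal at or below 3038400; inconclusive = same 50% fall but final raw signal above 3038400; inactive = fall in fluorescence gain under 50%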;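 note: plate controls were neutral control wells for no effect and wells lacking membranes for full effect; tested at 10 µM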
CSC inhib: cancer stem cell inhibition. inhibition, % at 7.5 µM. AID 2717. hit rate 1.1% among 300,000. cancer stem cell-like cells viability, luminescence;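 active = mean at 75% or more and at least half the replicates too; inconclusive = mean and replicates disagree; tested in HMLE shEcad cells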;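 note: 0% = median of negative and 100% = median of positive control wells; the first replicate is given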
MT1-MMP act inh: MT1-MMP (human) activation inhibition; GFP/RFP ratio change, % at 20 µM; HT1080 RFP-PRO-GFP cells, GFP/RFP ratio fluorescence, overnight; percent of plate control window, DMSO zero; hit rate 0.061% among 360,000; P50281;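 active = GFP/RFP ratio change of at least 30% with cell ATP level not reduced by more than half and red fluorescence within 50% of control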; note: strong numbers were not always called active
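Assay system: HT1080 RFP-PRO-GFP cells | Dosing: 20 µM single dose, 1% DMSO | Incubation: Cells overnight before dosing, compound overnight, 37 °C, 5% CO2 | Evaluation: GFP/RFP fluorescence ratio | Control set: DMSO-only wells and HT1080 RFP-L50D-GFP cell wells as references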
Yeast UUG start: alters start codon recognition fidelity in yeast; hit rate 0.13% among 350,000; AID 602363; S. cerevisiae UUG-firefly luciferase reporter, luminescence/redox ratio; activity score, % at 18.7 µM;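 active = replicate mean at a twofold rise or more, about +100% in these data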;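 note: firefly luciferase made from a UUG start codon reports start codon fidelity; reporter light over untreated wells divided by growth signal over untreated wells; some hits fall short of that in this replicate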
eIF4H FP inh retest: also measured in eIF4H FP inh; calls as there; inhibition, %; compound at 20 µM; confirmation average;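 mean of two retest wells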
PABP polyA inh retest: recorded beside PABP polyA inh, whose call it bears; inhibition, %; compound at 20 µM; confirmation repeats;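 mean of two retest wells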
MT1-MMP act inh RFP: also measured in MT1-MMP act inh; calls as there; RFP signal change, %; measured here: RFP expression control read;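 0 = vehicle wells; hits needed this value within 50% of zero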
Active calls of the source: *; i = inactive; ? = inconclusive; / = no result given; & = joins results of further samples. A portion of the library; the hit share may differ from the screen's.

SMILES	Env fusion inh	eIF4H FP inh	PABP polyA inh	Rce1 inhib	CSC inhib	MT1-MMP act inh	MT1-MMP act inh RFP	Yeast UUG start	others
CCCOc1ccc(-c2c(C(=O)N/N=C/c3ccccc3)nnn2-c2nonc2N)cc1	-10	-1	0	i	-10	-2	4	/
C/C(=N\NC(=O)c1ccc(Cl)cc1)c1ccc2[nH]ccc2c1	-23	1	-2	i	-7	-3	1	5
CCCCn1c(C23CC4CC(CC(C4)C2)C3)n[nH]c1=S	5	-4	-1	i	13	2	-9	-12
COCCn1nnnc1C(C(C)C)N1CCCC(C)C1 (configuration not stated)	1	-4	15	i	1	0	3	-7
Brc1ccccc1-c1nnc(COc2ncnc3ccccc23)o1	5	-4	-4	i	-4	-6	0	-7
CCNc1oc(COc2ccccc2F)nc1C#N	/	8	16	i	-15	-8	4	-8
COc1cc(SC)ccc1C(=O)Nc1ccc(C)cc1	-233	-1	4	i	-8	0	4	/
Cc1nn(C)c(Cl)c1S(=O)(=O)N[C@@H](c1ccccc1)[C@]1(C)C[C@H]1[C@@H](C)C(=O)Nc1ccc2ccccc2c1	-37	-6	0	/	-19	-4	-7	-39
CSCC[C@H](NC(=O)[C@@H]1Cc2ccccc2CN1)C(=O)NC1CCCC1	6	/	/	i	-8	-5	0	10
CCOc1ccccc1OCc1nn2c(-c3ccc(C)cc3)nnc2s1	/	2	16	i	-7	5	4	-26
COc1ccc(OC(=O)NCCc2ccccc2)cc1	-46	-1	5	i	1	-3	0	-17
COC(=O)Cc1c(O)ccn(Cc2ccc3c(c2)OCO3)c1=O	2	-10	0	i	-12	0	-2	-15
CNc1cc(C(F)(F)F)nc(-c2ccccn2)n1	-247	-7	-1	i	-9	2	5	-12
C=CCN(CC(=O)Nc1c(C)cccc1CC)C(=O)SCCC	/	1	-3	i	-9	-3	1	-12
CCOC(=O)N1CCN(CC(=O)Nc2ccc(Oc3ccccc3)cc2)CC1	-27	2	7	i	-11	3	2	-4
CC(=O)NS(=O)(=O)c1ccccc1	-25	-6	8	i	-20	4	5	-12
c1cc[n+](CCCC[n+]2ccccc2)cc1	-7	-5	0	i	3	5	5	-2
O=C(Cn1nc(-c2ccccc2)oc1=O)OCC(=O)c1ccccc1	0	/	/	/	-6	4	3	-9
O=C(CCCc1ccccc1)Nc1ccnn1C1CCN(Cc2ccc(Cl)cc2)CC1	2	-3	7	i	-11	2	-7	-9
CCOc1cccc(Oc2ccc(C(F)(F)F)cn2)c1	/	-3	3	i	-2	5	4	3
Cc1cc(C(F)F)n2nc(C(=O)Nc3cccc(C(F)(F)F)c3)nc2n1	/	-4	4	i	-4	1	-2	/
COCCN(CC(=O)NCC1CCCO1)C(=O)CCC(=O)Nc1cc(C)ccn1 (configuration not stated)	/	-10	28	i	-8	4	13	-10
Cc1cc(C)n2nc(C(=O)Nc3cc(S(=O)(=O)N4CCCCC4)ccc3C)nc2n1	-2	/	/	/	-12	2	1	-25
CCOC(=O)C(CSCC(=O)c1ccc(Br)cc1)NC(=O)OC(C)(C)C (configuration not stated)	/	-3	-6	i	-10	/	/	/
O=C(Nc1ccc(OC(F)(F)C(F)F)c(NC(=O)c2ccc(F)cc2)c1)c1ccc(F)cc1	-321	/	/	i	4	7	-1	-3

The listing continues:
SMILES	Env fusion inh	eIF4H FP inh	PABP polyA inh	Rce1 inhib	CSC inhib	MT1-MMP act inh	MT1-MMP act inh RFP	Yeast UUG start	others
CCN(C(=O)c1ccc(Cl)c(S(=O)(=O)Nc2c(C)n(C)n(-c3ccccc3)c2=O)c1)c1ccccc1	9	/	/	/	-16	-2	1	-4
Cc1cccc(NC(=O)C2CC(=O)OC23CCCCC3)c1 (configuration not stated)	-85	3	-2	i	0	-10	-3	3
COCC(C)n1c(SCC(=O)Nc2ccc3c(c2)OCCO3)nc2ccccc2c1=O (configuration not stated)	/	/	/	/	4	-1	-4	-3
Cc1ccc(NC(=O)COC(=O)Cc2ccsc2)cc1S(=O)(=O)N1CCOCC1	-12	-2	2	i	-6	-3	5	-8
COc1ccc([N+](=O)[O-])cc1NC(=O)Cc1noc2ccc(C)cc12	-11	-14	-6	i	-8	3	-1	/
CC(C)c1ccc(/C=C/C2=NNC(=O)CC2)cc1	37	2	0	i	12	-15	-13	/
COc1cccc(-n2nnnc2SCC(=O)Nc2ccc(C(C)=O)cc2)c1	14	-6	-2	i	-18	1	3	-18
Cc1ccc(NC(=O)C2CCN(c3cnccn3)CC2)cc1	-27	0	-8	i	-3	-3	0	/
O=C(CCCNC(=O)/C(=C/c1ccc(Br)cc1)NC(=O)c1ccccc1)OCc1ccccc1	3	14	0	i	-7	0	1	/
CC(C)(C)n1ncc2c(=O)n(Cc3cccc(Cn4cnc5c(cnn5C(C)(C)C)c4=O)c3F)cnc21	92*	/	/	/	/	-1	-24	-3
S=C(Nc1ccc(Br)cc1Cl)N1CCCC1	-33	9	4	i	-6	1	1	-20
CSc1nc2c(c(=O)[nH]1)C(c1ccc(C(F)(F)F)cc1)CC(=O)N2 (configuration not stated)	-14	0	-5	i	-14	0	1	/
CCc1c(C)[nH]c2ccccc2c1=O	/	-9	1	/	-3	1	-3	-20
COc1ccccc1-n1cnc2sc(C)c(C)c2c1=O	1	-14	-2	i	-6	0	0	-17
CCOc1ccc(CC2CCC(=O)NC2=O)cc1 (configuration not stated)	7	0	-1	i	3	2	1	-3
Cc1cccc(/C=C2/C(=O)/C(=C/c3ccccc3C)C3CCC2N3C)c1 (configuration not stated)	/	1	-8	i	-13	0	0	-11
COCCOC1CCN(Cc2cn(Cc3ccccc3)nc2-c2cc3ccccc3o2)CC1	20	-1	-8	i	-14	0	-5	-16
Cc1ccc2c(c1)C(c1ccccc1)N(C(=O)c1c(F)cccc1Cl)CC(=O)N2 (configuration not stated)	59*	1	-3	i	-7	-2	0	-7
COc1cccc(-c2cc(CNC(=O)[C@H]3O[C@@H](n4cnc5c(N)ncnc54)[C@H](O)[C@@H]3O)no2)c1	-7	/	/	/	/	3	-1	-3
CC(C)N1CCN(Cc2nc3c(s2)CCCC3)CC1CCO (configuration not stated)	21	2	-2	i	0	2	6	/
C=CCN(CC=C)CC(=O)Nc1cccc(Oc2cnccn2)c1	0	-9	-4	i	-7	-3	-6	-7
Cc1oc(C(=O)O)cc1CSCc1ccoc1C(=O)O	/	-8	41	i	-17	1	3	0
COc1cccc(-n2ccnc2SCC(=O)N2CCCc3ccccc32)c1	4	-4	1	i	-10	3	3	/
CC(=O)c1ccccc1NC(=O)COC(=O)c1cc(C)oc1C	/	/	/	/	-1	0	0	-14
COc1ccc(S(=O)(=O)N2CCC(C(N)=O)(N3CCCCC3)CC2)cc1	3	2	0	i	-5	2	3	-30

Next compounds.
SMILES	Env fusion inh	eIF4H FP inh	PABP polyA inh	Rce1 inhib	CSC inhib	MT1-MMP act inh	MT1-MMP act inh RFP	Yeast UUG start	others
CCOC(=O)N1CCN(C(=O)CSc2nnc(C3COc4ccccc4O3)o2)CC1 (configuration not stated)	-5	0	0	i	11	8	4	0
O=C(N/N=C/c1cccc(Br)c1)c1ccc(N2CCCC2=O)cc1	-2	-28	-7	i	17	-5	-8	-13
O=[n+]1c2c(n([O-])c3cc(F)c(N4CCCC4)cc31)CCCC2	/	?	?	i	6	-149	8	-7
CCCCn1cnc2c(SCc3ccccc3)nc(N)nc21	-14	/	/	/	/	0	-3	-24
O=C1C=C(Nc2ccc(O)cc2)C(=O)c2ccccc21	-75	1	8	i	105*	13	1	-2
CCOC(=O)C1=C(CSc2nccn2C)NC(=O)NC1c1cc(C)ccc1C (configuration not stated)	/	3	-14	i	-10	-2	-3	-18
CC(NC(=O)c1cccc(C(F)(F)F)c1)C(c1ccccc1)N1CCOCC1 (configuration not stated)	10	-2	3	i	-10	5	-3	/
CN(C)S(=O)(=O)c1ccc2[nH]cc(/C=C/c3nc4ccccc4c(=O)n3-c3ccccc3)c2c1	-10	-11	-12	i	17	2	-3	-18
Cc1ccc2c(c1)NC(=O)C(CC(=O)NCCN(CC(C)C)CC(C)C)O2 (configuration not stated)	0	-4	15	i	/	13	10	-12
COc1ccc(C(CC(=O)NCc2ccccc2)Sc2n[nH]c(-c3ccc(Cl)cc3)n2)cc1 (configuration not stated)	9	4	1	i	1	-4	-3	/
COc1ccc(-c2cn(-c3ccc(Cl)cc3)c3[n+]2CCCCC3)cc1	-3	0	11	i	17	4	-12	/
CC[C@]12c3[nH]c4ccc(OC)cc4c3CCN1C(=O)C(CC(=O)NCCCOC)C[C@@H]2C(=O)N1CCN(C(=O)c2ccco2)CC1 (some centres not stated)	25	/	/	/	/	-2	0	-23
Cc1ccc(C(=O)OCC(=O)Nc2ncc(C(F)(F)F)cc2Cl)cc1NC(=O)c1ccco1	4	13	15	i	-3	-3	1	-3
Cc1sc2ncnc(Oc3ccc(-n4ccnc4)cc3)c2c1C	11	7	0	i	-24	-7	-11	-16
O=C(c1ccc(F)cc1)N1CCC(c2ccccc2)C1 (configuration not stated)	-33	-1	15	i	7	/	/	/
CCc1ccc(CN(C)C(=O)CCc2nc3ccccc3n(-c3ccc(OC)cc3)c2=O)cc1	33	5	-5	i	50	-1	-23	/
Cc1ccc(-c2cc(C(=O)O)c3ccccc3n2)c(C)c1	-12	-6	-4	i	10	-4	2	-14
COC(=O)COc1ccc(S(=O)(=O)NCc2cccnc2)cc1	17	-5	-10	i	5	-3	-3	-14
COc1ccccc1C(=O)NC(=Nc1nc2ccccc2o1)NC(=O)c1ccccc1OC	-2	6	2	i	18	9&-13	-3&-25	-13&8
COc1ccc(-c2noc(N3CCC(C(=O)Nc4ccccc4Cl)CC3)n2)cc1	54	-11	81	i	3	-4	-15	-8	eIF4H FP inh retest=-1;PABP polyA inh retest=12
Cc1cc2c(c(=O)n1Cc1cccnc1)C(c1ccc(F)cc1)C(C#N)=C(N)O2 (configuration not stated)	/	-3	-4	i	-9	-5	5	/
COCCNc1nc(Nc2ccc(C)cc2C)c2sccc2n1	-119	/	/	/	/	4	-14	-11
OCCN1CCOCCN(CCO)CCN(CCO)CC1	/	0	-14	i	-7	0	4	-11
COc1ccc(S(=O)(=O)N(C)C)cc1NCC(=O)Nc1cccc2ccccc12	3	/	/	i	-9	5	1	0
CCCCCN(C(=O)CCC(=O)OCC(=O)c1ccc(C(C)CC)cc1)c1c(N)n(CCCC)c(=O)[nH]c1=O (configuration not stated)	/	/	/	i	3	-9	-12	-17
CS(=O)(=O)c1ccc(C(=O)OCC(=O)NC(=O)C2CCCCC2)cc1[N+](=O)[O-]	-43	-1	-5	i	64	-2	-4	/
Cc1cc(NCCO)nc(N2CCOCC2)n1	/	10	15	i	/	-2	0	-15
O=C(O)c1cccc(NC(=O)c2cn(-c3ccccc3)nc2-c2ccncc2)c1	11	-15	0	i	-11	/	/	/
COc1ccc(CNC(=O)CN(Cc2cccs2)C(=O)CCC(=O)Nc2ccccn2)cc1	3	0	-2	i	-12	2	4	-16

Among those listed so far, these have a COOH group:
SMILES	Env fusion inh	eIF4H FP inh	PABP polyA inh	Rce1 inhib	CSC inhib	MT1-MMP act inh	MT1-MMP act inh RFP	Yeast UUG start	others
Cc1oc(C(=O)O)cc1CSCc1ccoc1C(=O)O	/	-8	41	i	-17	1	3	0
Cc1ccc(-c2cc(C(=O)O)c3ccccc3n2)c(C)c1	-12	-6	-4	i	10	-4	2	-14
O=C(O)c1cccc(NC(=O)c2cn(-c3ccccc3)nc2-c2ccncc2)c1	11	-15	0	i	-11	/	/	/

Compound activity deposited in PubChem BioAssay by several laboratories.
